Bioassay records (PubChem)
INS promoter inh: inhibitors of insulin promoter-driven GFP, primary screen, imaging, TRM-6 cells (human fetal islet line), eGFP reporter, cell count. 130,000 compounds, 0.9% hits. reporter expression induced with tamoxifen. inhibition, % at 2 µM;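 active = inhibition above the mean plus 3 SD, with well images judged a real hit on visual review, cut at about 60% in these data, passing the limit was not always enough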
RGS16-Gao HTS: modulators of RGS16 binding to Galphao, primary screen, biochemical, human proteins, multiplexed bead flow cytometry; Regulator of G-protein signaling 16 (Homo sapiens) + Guanine nucleotide-binding protein …; 220,000 compounds, 0.38% hits; bead-based flow cytometry RGS16-Galphao binding, fluorescence; actives lie on both sides; binding response (% of control), % at 10 µM;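 active = below 25% or above 175%, edge rows of some plates excepted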;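 note: Galphao activated by GDP with aluminum fluoride before binding; 100% = wells without compound and 0% = beads without RGS; some results beyond the cut were filed as inactive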
HSV replic up: enhancers of HSV replication in host cells, fold increase, host cell viability; maximum fold increase; HSV replication augmentation in cells; 220,000 compounds, 0.005% hits; AID 1956, 2009;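 active = peak rise of 1.5-fold or more in the series; tested in PC3 cells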;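 note: first round at 10 µM; read as green reporter fluorescence; hits show the peak of a series up to 25 µM; 1 = signal of infected wells without compound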
GALR2 ag: GALR2 receptor agonists, primary screen, cell-based; Galanin receptor type 2 (Homo sapiens), O43603; GALR2-expressing cells, agonist activation read-out; activation, %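 (tested at 5 µM)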; 140,000 compounds, 0.48% hits;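 active = above mean plus 3 SD of all compounds, about 5% in these data, not always enough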;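 note: 0% = vehicle buffer wells and 100% = reference agonist at full effect; tested in CHO reporter cells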
PKD1 inh: inhibitors of human PKD1 kinase, biochemical, fluorescence polarization; inhibition, %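 (about 10 µM by stock and volumes)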; Serine/threonine-protein kinase D1 (Homo sapiens), Q15139; PKD1 kinase fluorescence polarization assay; 200,000 compounds, 0.056% hits; AID 797, 2007;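 active = inhibition of 50% or more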;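 note: controls were vehicle for no effect and a reference inhibitor for full effect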
Target sequence (Q15139 whole entry, looked up): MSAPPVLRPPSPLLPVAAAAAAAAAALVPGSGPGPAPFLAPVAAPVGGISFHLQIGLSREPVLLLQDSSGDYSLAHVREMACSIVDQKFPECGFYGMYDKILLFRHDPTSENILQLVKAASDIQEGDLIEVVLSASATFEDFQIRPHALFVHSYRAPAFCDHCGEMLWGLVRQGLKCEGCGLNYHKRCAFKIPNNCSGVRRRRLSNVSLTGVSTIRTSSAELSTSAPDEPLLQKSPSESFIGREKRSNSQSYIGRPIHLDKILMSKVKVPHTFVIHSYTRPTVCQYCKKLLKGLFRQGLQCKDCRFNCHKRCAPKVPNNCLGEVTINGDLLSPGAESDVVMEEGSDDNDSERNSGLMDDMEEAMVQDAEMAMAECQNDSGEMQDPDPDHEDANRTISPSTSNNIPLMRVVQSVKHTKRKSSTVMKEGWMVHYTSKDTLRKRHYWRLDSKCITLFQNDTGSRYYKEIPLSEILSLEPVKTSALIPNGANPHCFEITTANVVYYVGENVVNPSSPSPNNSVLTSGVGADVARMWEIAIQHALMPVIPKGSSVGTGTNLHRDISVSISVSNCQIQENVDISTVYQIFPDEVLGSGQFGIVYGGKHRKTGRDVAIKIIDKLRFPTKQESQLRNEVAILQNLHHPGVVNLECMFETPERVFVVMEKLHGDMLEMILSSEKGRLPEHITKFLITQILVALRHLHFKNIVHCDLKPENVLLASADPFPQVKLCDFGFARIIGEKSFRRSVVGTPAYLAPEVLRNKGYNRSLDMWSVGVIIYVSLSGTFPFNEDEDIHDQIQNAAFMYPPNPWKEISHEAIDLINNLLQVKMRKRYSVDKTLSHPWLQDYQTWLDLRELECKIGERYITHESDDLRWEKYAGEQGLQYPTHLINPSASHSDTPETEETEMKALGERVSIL
INS promoter inh cell count: also measured in INS promoter inh; calls as there; normalized cell count, %; measured here: cell count, toxicity; reference of the scale not given here;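 cells exposed to compound for 48 h; stained nuclei by imaging scaled within each plate; lower means fewer cells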
HSV replic up primary fold: also measured in HSV replic up; calls as there; fold increase; compound at 10 µM; measured here: primary screen fold increase 10 uM; tested in PC3 cells;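 GFP signal in the first replicate; 1 = infected wells without compound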
* = called active by the depositor; i = inactive; x = not tested or not shown; [ ] = dose if it differs, or a comment.

SMILES | INS promoter inh | INS promoter inh cell count | RGS16-Gao HTS | HSV replic up | HSV replic up primary fold | GALR2 ag | PKD1 inh
O=C(CSc1nc2ccccc2c(=O)[nH]1)N1CCCCCC1 | x | x | 100 | i | 0.89 | -2.2 | 8
COc1cc(OC)c(OC)cc1CN1CCN(Cc2ccc(SC)cc2)CC1 | x | x | 98 | i | 0.9 | x | -7
Cc1ccc(S(=O)(=O)NCCc2nnc3ccc(SCC(=O)Nc4nc5ccccc5s4)nn23)cc1 | -88 | 39 | 177*[activator] | i | 0.94 | -2.3 | -6
Cc1cc(C)n(CCC(=O)N=Nc2c(O)[nH]c3ccccc23)n1 | x | x | 104 | i | 0.9 | x | x
O=C(NNc1ccc(-c2csnn2)cc1)c1cc(Cl)cc(Cl)c1 | x | x | 97 | i | 0.76 | x | x
O=C1/C(=C/c2ccncc2)Oc2cc(OS(=O)(=O)c3ccccc3)ccc21 | x | x | 95 | i | 0.94 | x | x
CC(=O)c1cccc(NC(=O)c2oc(C)nc2C)c1 | -50 | 99 | 97 | i | 0.99 | -2.6 | -7
Cc1cc(N2CCOCC2)nc(SCC(=O)c2ccc(Cl)cc2)n1 | 12 | 92 | 72 | i | 0.88 | -0.5 | 1
Cc1nn(-c2ccccc2)nc1C(=O)Nc1nnc(C(F)(F)F)s1 | x | x | 77 | i | 0.97 | x | x
O=C1c2ccccc2C(=Nc2ccccc2)C1c1cccc(Br)c1 (centres undefined) | -13 | 73 | 97 | i | 0.78 | -1.5 | -8
CN(NS(=O)(=O)c1ccccc1)c1nc2ccccc2nc1C(F)(F)F | -357 | 91 | 102 | i | 0.84 | -1.8 | -7
C=CCNC(=O)COC(=O)c1ccccc1C(=O)N(C)C1CCCCC1 | 14 | 85 | 108 | i | 1 | -1.8 | -14
NC(=NCCc1ccccc1)NS(=O)(=O)c1ccc(F)cc1 | 38 | 137 | 76 | i | 0.92 | -2.9 | -16
O=C(Nc1ccccc1Br)C1CCC(=O)N1Cc1ccccc1Cl (centres undefined) | x | x | 96 | i | 0.81 | -0.6 | -6
COc1ccc(NC(C)=O)cc1C#N | 21 | 147 | 97 | i | 0.97 | x | 6
CC(=O)NCCC(=O)Nc1nc(-c2ccccc2Cl)cs1 | x | x | 97 | i | 0.98 | x | 1
CCOC(=O)c1ccccc1NC(=O)c1cccc2c1C(=O)N(C1CCN(C(=O)OCC)CC1)C2 | x | x | 99 | i | 0.95 | -0.2 | 3
O=S(=O)(Nn1cnnc1)c1ccc(F)cc1 | x | x | 92 | i | 1.2 | x | -2
O=C(c1ccc2c(c1)N(Cc1ccccc1)C(=O)c1ccccc1S2)N1CCCC1 | 7 | 97 | 100 | i | 1.1 | 0.8 | 16
COc1ccc(/C=C/C(=O)Nc2cc(F)ccc2C)cc1S(=O)(=O)N1CCOCC1 | 0 | 172 | 105 | i | 0.8 | x | -4
CCc1ccc2c(c1)C1(NN=C(c3ccc(C)cc3)S1)C(=O)N2 (centres undefined) | 39 | 78 | 91 | i | 0.68 | 3.6 | -8
O=C1CC(N2CCN(c3nc4ccccc4s3)CC2)C(=O)N1Cc1cccs1 (centres undefined) | -43 | 92 | 101 | i | 0.95 | 0.8 | 1
CC1=C(C)Cc2c(OC(=O)c3ccccc3)ccc(OC(=O)c3ccccc3)c2C1 | x | x | 101 | i | 1.1 | x | x
CCOC(=O)Cn1c(=N)n(Cc2ccccc2F)c2ccccc21 | 0 | 101 | 112 | i | 1 | -1.3 | -2
O=C(Cn1cnc2ccccc21)N/N=C/C(Br)=C/c1ccccc1 | x | x | 104 | i | 0.82 | 0.0 | -3

Ordered by SMILES length (low to high): part of the list above.
SMILES | INS promoter inh | INS promoter inh cell count | RGS16-Gao HTS | HSV replic up | HSV replic up primary fold | GALR2 ag | PKD1 inh
CCOC(=O)Cn1c(=N)n(Cc2ccccc2F)c2ccccc21 | 0 | 101 | 112 | i | 1 | -1.3 | -2
O=C(Cn1cnc2ccccc21)N/N=C/C(Br)=C/c1ccccc1 | x | x | 104 | i | 0.82 | 0.0 | -3
COc1ccc(/C=C/C(=O)Nc2cc(F)ccc2C)cc1S(=O)(=O)N1CCOCC1 | 0 | 172 | 105 | i | 0.8 | x | -4

Remaining list, next part:
SMILES | INS promoter inh | INS promoter inh cell count | RGS16-Gao HTS | HSV replic up | HSV replic up primary fold | GALR2 ag | PKD1 inh
O=C(O)c1ccc(Cn2nnc3sc4c(c3c2=O)CCCC4)cc1 | x | x | 102 | i | 1 | x | 0
Cc1cccc(-n2c(O)c(C=NC3CCS(=O)(=O)C3)c3ccccc3c2=O)c1C (centres undefined) | x | x | 85 | i | 0.84 | x | x
CC1=CC(C)(C)Nc2ccc(OC(=O)c3cccnc3)cc21 | x | x | 108 | i | 1 | 0.0 | -7
Cc1ccc(C(=O)c2ccccc2C(=O)OCC(=O)NCC2CCCO2)cc1 (centres undefined) | x | x | 104 | i | 0.96 | x | 0
COc1ccc(CC(NC(C)=O)C(=O)NC2CCN(c3nc(C)cc(C)c3C#N)CC2)cc1OC (centres undefined) | x | x | 103 | i | 0.9 | x | 0
CCCc1ccc(C2C3=C(CC(C)(C)CC3=O)NC3=C2C(=O)c2ccccc23)cc1 (centres undefined) | -33 | 62 | 101 | i | 1.1 | -1.4 | 8
Cc1nc(-c2cccc3ccccc23)ccc1C(=O)O | -15 | 108 | 104 | i | 0.96 | -0.5 | 15
CCN(CC)CCCNCC(=O)Nc1ccc(OC)c(Cl)c1 | x | x | 103 | i | 0.9 | x | x
CCN(CC)S(=O)(=O)c1ccc(N2CCCCC2)c(NC(=O)/C=C/c2cc(OC)c(OC)c(OC)c2)c1 | 21 | 100 | 113 | i | 0.91 | -0.4 | -2
COc1ccc2nc(NC(=O)c3sc4nc(C)cc(C)c4c3N)sc2c1 | x | x | 107 | i | 0.94 | x | x
Cc1ccc(S(=O)(=O)N2CCOCC2)cc1C(=O)Nc1cccc(S(=O)(=O)N2CCCC2)c1 | x | x | 102 | i | 0.88 | x | -1
COc1cccc(/C=N/n2c(SC)nnc2-c2ccccc2)c1OC | x | x | 105 | i | 0.92 | -2.0 | 0
CCN1CCN(c2c(Cl)cccc2NC(=O)c2ccco2)CC1 | 14 | 137 | 110 | i | 1 | -1.0 | 0
CCOC(=O)c1nnn(-c2nonc2N)c1-c1ccc(Cl)cc1 | 18 | 26 | 111 | i | 0.91 | x | 2
O=C(Nc1ccc(Cl)c(S(=O)(=O)Nc2ccccc2Cl)c1)c1cccs1 | 38 | 66 | 108 | i | 1.1 | -2.1 | 10
NC(=O)c1ccc(C(F)(F)F)n(Cc2cccc(Cl)c2)c1=O | x | x | 102 | i | 1.1 | -1.0 | 6
Cc1ccc(NC(=O)Cn2nc(C)c3ccccc3c2=O)c(C)c1 | -107 | 80 | 113 | i | 0.78 | -1.1 | -2
Cc1cc(-c2nnc(SCC(=O)Nc3ccc(C(F)(F)F)cc3)n2C)no1 | x | x | 98 | i | 0.97 | x | x
CCOC(=O)c1c2ccc(OCC(=O)N/N=C/c3ccc(C)cc3)cc2n2ccccc12 | x | x | 98 | x | x | 0.6 | 7
CCOC(=O)c1csc(NC(=O)c2ccc(S(=O)(=O)N(CC)CC)cc2)n1 | 57 | 178 | 168 | i | 1.1 | 0.0 | 4
Cc1cc(NC(=O)CSc2nnc(COc3cccc(C)c3C)n2C)no1 | x | x | 99 | i | 0.87 | -1.8 | -5
COc1ccc(NC(=O)Cc2nnc(SCC(=O)Nc3cc(C)ccc3OC)n2C)cc1 | -64 | 79 | 108 | i | 0.83 | -1.5 | 0
C/C(=N\NC(=O)c1cccnc1)c1ccc(-c2ccccc2)cc1 | x | x | 95 | i | 0.88 | x | x
CC1(C)C/C(=C(/C#N)C(N)=O)CCO1 | 21 | 69 | 102 | i | 0.93 | -1.6 | 0
Cc1[nH]n(C)c(=O)c1[N+](=O)[O-] | x | x | 97 | i | 1.2 | x | x

Taken from above for reference:
SMILES | INS promoter inh | INS promoter inh cell count | RGS16-Gao HTS | HSV replic up | HSV replic up primary fold | GALR2 ag | PKD1 inh
CC1=CC(C)(C)Nc2ccc(OC(=O)c3cccnc3)cc21 | x | x | 108 | i | 1 | 0.0 | -7
Cc1ccc(C(=O)c2ccccc2C(=O)OCC(=O)NCC2CCCO2)cc1 (centres undefined) | x | x | 104 | i | 0.96 | x | 0
COc1ccc(CC(NC(C)=O)C(=O)NC2CCN(c3nc(C)cc(C)c3C#N)CC2)cc1OC (centres undefined) | x | x | 103 | i | 0.9 | x | 0
CCCc1ccc(C2C3=C(CC(C)(C)CC3=O)NC3=C2C(=O)c2ccccc23)cc1 (centres undefined) | -33 | 62 | 101 | i | 1.1 | -1.4 | 8
Cc1nc(-c2cccc3ccccc23)ccc1C(=O)O | -15 | 108 | 104 | i | 0.96 | -0.5 | 15
CCN(CC)CCCNCC(=O)Nc1ccc(OC)c(Cl)c1 | x | x | 103 | i | 0.9 | x | x
CCN(CC)S(=O)(=O)c1ccc(N2CCCCC2)c(NC(=O)/C=C/c2cc(OC)c(OC)c(OC)c2)c1 | 21 | 100 | 113 | i | 0.91 | -0.4 | -2
COc1ccc2nc(NC(=O)c3sc4nc(C)cc(C)c4c3N)sc2c1 | x | x | 107 | i | 0.94 | x | x
Cc1ccc(S(=O)(=O)N2CCOCC2)cc1C(=O)Nc1cccc(S(=O)(=O)N2CCCC2)c1 | x | x | 102 | i | 0.88 | x | -1
COc1cccc(/C=N/n2c(SC)nnc2-c2ccccc2)c1OC | x | x | 105 | i | 0.92 | -2.0 | 0
CCN1CCN(c2c(Cl)cccc2NC(=O)c2ccco2)CC1 | 14 | 137 | 110 | i | 1 | -1.0 | 0
CCOC(=O)c1nnn(-c2nonc2N)c1-c1ccc(Cl)cc1 | 18 | 26 | 111 | i | 0.91 | x | 2
O=C(Nc1ccc(Cl)c(S(=O)(=O)Nc2ccccc2Cl)c1)c1cccs1 | 38 | 66 | 108 | i | 1.1 | -2.1 | 10
NC(=O)c1ccc(C(F)(F)F)n(Cc2cccc(Cl)c2)c1=O | x | x | 102 | i | 1.1 | -1.0 | 6
Cc1ccc(NC(=O)Cn2nc(C)c3ccccc3c2=O)c(C)c1 | -107 | 80 | 113 | i | 0.78 | -1.1 | -2

(list continues)
SMILES | INS promoter inh | INS promoter inh cell count | RGS16-Gao HTS | HSV replic up | HSV replic up primary fold | GALR2 ag | PKD1 inh
O=C(NCCSc1c[nH]c2ccccc12)c1c(F)cccc1F | x | x | 99 | i | 0.9 | x | 3
O=c1c2[nH]c3ccc(F)cc3c2ncn1C1CCCCC1 | 0 | 118 | 82 | i | 0.98 | -1.0 | -5
COCCCNC(=O)c1cc(=O)n(Cc2ccc(Cl)cc2)c2ccccc12 | -20 | 177 | 108 | i | 1 | x | -8
O=C(Nc1ccc(Cl)cc1)NC1CCCC1Cc1ccco1 (centres undefined) | x | x | 107 | i | 0.86 | -1.4 | -10
CN(C(=O)C1CCCO1)c1nnc(-c2cnccn2)s1 (centres undefined) | x | x | 80 | i | 1 | -1.6 | -7
O=C(Cn1c(=O)oc2ccccc21)Nc1nnc(N2CCCCCC2)s1 | x | x | 98 | i | 0.8 | -1.7 | 10
COc1ccccc1-n1c(COc2ccccc2-c2ccccc2)nnc1SCC(=O)c1c(N)n(C)c(=O)n(C)c1=O | 2 | 86 | 95 | i | 0.94 | -1.8 | -9
CCc1[nH]nc2c1C(C(C)C)C(C#N)=C(N)O2 (centres undefined) | x | x | 105 | i | 0.92 | x | x
Cc1ccccc1CN(c1ccc(C(=O)N2CCc3ccccc3C2)cc1)S(C)(=O)=O | -11 | 212 | 105 | i | 0.9 | -0.3 | -5
Cc1cc(CNC(=O)[C@H]2C[C@@H]2[C@H](NP(=O)(c2ccccc2)c2ccccc2)c2ccccc2)nn1C | -45 | 116 | 111 | i | 1.4 | -2.1 | -4
CCOC(=O)Nc1ccc(S(=O)(=O)Nc2nc(C)cc(C)n2)cc1 | 36 | 50 | 99 | i | 0.74 | -2.7 | -1
C=CCn1c(N(C)C)nc2c1c(=O)[nH]c(=O)n2C | x | x | 101 | i | 1.1 | x | x
COC(=O)CCc1c(C)nn(-c2ccccc2)c1C | x | x | 97 | i | 1 | -0.6 | 4
c1cc2c3c(cccc3c1)NC1(CCCCC1)N2 | -43 | 8 | 88 | i | 0.67 | -2.5 | -1
COCCn1c(SCC(=O)Nc2ncc(C)s2)nc2sc3c(c2c1=O)CCC3 | -12 | 88 | 98 | i | 0.9 | 1.2 | 4
COC(=O)CN1C(c2cccc(Cl)c2)=Nc2ccc(Cl)cc2C1c1ccccc1 (centres undefined) | x | x | 102 | i | 1 | 0.8 | 5
